# Screening data from PubChem.
# TRPV1 PAM: HTS Assay for Compounds that Act as Potentiators of the Vanilloid Receptor 1; Transient receptor potential cation channel subfamily V member 1 (Homo sapiens), Q8NER1; TRPV1-expressing cells, Fluo-8 calcium influx, capsaicin EC20 potentiation; host cell line not named in the record; control for the full effect not named in the record; potentiation, % at 8.33 µM; 320,000 compounds, 0.02% hits; AID 540277, 2011; active means potentiation above 80%; inconclusive means 30% to 80%; inactive means below 30%; note: 0% is about no effect
#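 Fluo-8 calcium influx in TRPV1-expressing cells, kinetic read (ex 480/em 520 nm). Compound added and read 3 min for agonist activity, followed by capsaicin at EC20 final and 2 min further read for enhancement.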
# TRPML1 agonist: qHTS for Agonists of the Human Mucolipin Transient Receptor Potential 1 (TRPML1); TRPML1-expressing cells, Ca2+ dye fluorescence, FDSS; host cell line not named in the record; reference of the full effect not given here; activation, % (no concentration beside the values); 410,000 compounds, 0.12% hits; in the data active = activation above about 50%; inconclusive = about 30% to 50%; inactive = below about 30%; note: 0% is about no effect; the text of the record puts the active cut at 80%
# Target sequence (Q9GZU1 whole entry, looked up): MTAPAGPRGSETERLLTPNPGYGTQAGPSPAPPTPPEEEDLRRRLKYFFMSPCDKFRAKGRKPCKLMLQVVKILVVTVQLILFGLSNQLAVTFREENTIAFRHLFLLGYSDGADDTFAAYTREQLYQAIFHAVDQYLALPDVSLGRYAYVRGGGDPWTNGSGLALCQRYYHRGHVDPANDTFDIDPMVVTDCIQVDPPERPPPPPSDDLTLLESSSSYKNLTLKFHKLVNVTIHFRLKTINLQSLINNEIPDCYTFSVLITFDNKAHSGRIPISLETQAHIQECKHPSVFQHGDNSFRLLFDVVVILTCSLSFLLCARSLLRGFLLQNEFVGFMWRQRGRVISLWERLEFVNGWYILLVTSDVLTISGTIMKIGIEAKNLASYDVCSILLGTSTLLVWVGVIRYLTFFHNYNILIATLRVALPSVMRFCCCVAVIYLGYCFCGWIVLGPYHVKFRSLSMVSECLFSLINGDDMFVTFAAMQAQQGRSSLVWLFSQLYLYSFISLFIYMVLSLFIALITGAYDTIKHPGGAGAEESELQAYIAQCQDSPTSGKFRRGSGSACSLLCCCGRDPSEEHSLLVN
#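 TRPML1-DL cells, Tet-induced overnight (~16 h, 37 degrees C), loaded 45-90 min at room temperature with Ca8 no-wash calcium dye plus quencher. FDSS fluorescence: 10 s baseline, compound pin-transfer, 110 s agonist read, then EC80 54-4 (4uM final) and 110 s antagonist read.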
# ClpP mod: qHTS Assay for Activators of ClpP. ATP-dependent Clp protease proteolytic subunit (Bacillus subtilis (strain 168)), P80244. AID 651965, 2013. purified B. subtilis ClpP, FRET peptide cleavage, 20 min. Potency, µM (titrated, usually from 57.5 µM), for inactives: at the top dose activity change, negative = active. 340,000 compounds, 1.9% hits; active = well fitted falling curve with a large enough effect; inconclusive = small, poorly fitted or top-dose-only effect; inactive = no such curve, though single readings can be large or run the other way; note: potency is the fitted concentration of half-maximal effect; the source files actives as falling curves though it sought activators and does not explain the sign; nearly all actives have a fitted effect of over 65% in size; many hits overshoot -100%
# Target sequence (P80244 whole entry, looked up): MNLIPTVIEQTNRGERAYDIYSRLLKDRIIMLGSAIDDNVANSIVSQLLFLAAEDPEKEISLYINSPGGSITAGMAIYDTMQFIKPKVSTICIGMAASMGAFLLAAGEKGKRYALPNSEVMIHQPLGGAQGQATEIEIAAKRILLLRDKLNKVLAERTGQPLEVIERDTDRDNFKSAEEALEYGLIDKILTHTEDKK
#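 FRET quenching reversal measured ClpP activation: 10 microg/mL B. subtilis ClpP at pH 8 with the FRET-FV decapeptide, read at 430 nm after 320 nm excitation. The 20-min minus 0-min signal was scaled between DMSO/no-enzyme wells and ADEP (5.8 microM final).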
# Menin-MLL FL inh: qHTS Assay for Inhibitors Targeting the Menin-MLL Interaction in MLL Related Leukemias: Competition With Fluorescein Labeled MLL-derived Peptide | Fluorescence polarization, fluorescein-MLL peptide displacement from menin | FP activity change, % at 61.4 µM | 290,000 tested, under 10 active | AID 1766, 2009; inconclusive = falling polarisation curve, or a change in total fluorescence; inactive = total fluorescence flat and polarisation flat or rising; no compound was filed as active; the % refers to the polarisation; negative = inhibition;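 note: % of control where 0% means no effect; inhibitors lower the polarisation; unlabelled MLL peptide was the positive control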
# PINK1 modulator: A Quantitative High throughput Screen to Identify Chemical Modulators of PINK1 Expression; PINK1 immunofluorescence, high-content cytometry, 24 h; Potency, µM (top dose mostly 76.6 µM), inactives show at the top dose activation (PINK1 increase), usual class: activators; 410,000 compounds, 0.2% hits; active = well fitted activation curve with a large enough effect; inconclusive = small, poorly fitted or top-dose-only effect; inactive = flat fitted curve, though single readings scatter; cell line not stated here;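 note: potency is the fitted concentration of half-maximal effect; % of control where 0% means no effect; nearly all actives have a fitted effect of over 65% in size; a mitochondrial uncoupler was the plate control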
#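 Stable cell line treated 24 h with compounds at 5 concentrations (CCCP controls), then fixed and immunostained for PINK1 plus nuclear and cell stains; PINK1 immunofluorescence quantified by laser-scanning microplate cytometry.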
# Sfp inh: qHTS Assay for Inhibitors of Bacillus subtilis Sfp phosphopantetheinyl transferase (PPTase). Biochemical Sfp PPTase activity, qHTS. 4'-phosphopantetheinyl transferase ffp (Bacillus subtilis), Q9F4F7. 310,000 compounds, 3.5% hits. AID 1490, 2009. Potency, µM, for the others: max response, negative = inhibition, hits mostly inhibitors; active = well fitted inhibition curve with a large enough effect; inconclusive = small, poorly fitted or top-dose-only effect, or another doubt; inactive = no such curve, though single readings can be large or run the other way;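 note: the enzyme is Sfp with the accession as filed and its product quenches rhodamine fluorescence; potency is the fitted concentration of half-maximal effect; 0% = enzyme reaction without inhibitor and -100% = no enzyme wells; top concentration of the series not given in the record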
#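 Compounds were incubated with enzyme (final 15 nM) for 15 min at room temperature before substrate addition started the reaction. Fluorescence at 525 nm excitation, 598 nm emission was recorded immediately and after 30 minutes.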
# TRPML1 inh: qHTS for Inhibitors of the Human Mucolipin Transient Receptor Potential 1 (TRPML1) | TRPML1-inducible cells, Ca2+ dye fluorescence, FDSS; active compounds read low; inhibition of EC80 agonist-evoked calcium signal | activity change, negative = inhibition, % (no concentration beside the values) | 390,000 compounds, 0.02% hits | AID 624415, 2012; in the data active means activity change below about -50%; inconclusive means about -30% to -50%; inactive means above about -30%;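 note: stimulus is agonist 54-4 at its EC80 concentration; % is set by controls: 0 for no effect and ±100 for the full control effect; compound concentration not given in the record; the text of the record puts the active cut at -80%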
#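 Tet-induced TRPML1-DL cells loaded with Ca8 no-wash calcium dye were read kinetically on FDSS. Compound addition was followed by EC80 agonist 54-4 (4 uM final); inhibition was read over 110 s.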
# * hit, by the source's call; ? = inconclusive; . = no result given; & = joins results of further samples; [ ] = dose if it differs, or a comment.
structure	TRPV1 PAM	TRPML1 agonist	ClpP mod	Menin-MLL FL inh	PINK1 modulator	Sfp inh	TRPML1 inh
Cc1ccc(S(=O)(=O)NCCC(=O)O)cc1	6	1.4	-2.2%	2.5	0.1%	18%	7
COc1ccc(C(CNS(=O)(=O)c2ccc(NC(C)=O)c(OC)c2)N2CCCC2)cc1 (stereo not given)	.	2.0	2.1%	.	-1.1%	.	36
O=C(O)c1nnn(-c2cccc(C(F)(F)F)c2)c1-c1ccccc1	4	4.2	1.7%	0.3	0.8%	2%	-1
CCOc1ccc(C(C)=O)cc1N1C(=O)C2C3C=CC(C3)C2C1=O (stereo not given)	-11	-0.1	-2.8%	7.1	25%[38.3 µM]	20%	-8
COc1ccc(S(=O)(=O)N2CCN(CC(O)CN3CCOCC3)CC2)cc1 (stereo not given)	0	-0.5	1.1%	.	1.9%	.	-12
CN(c1ccccc1C(=O)N1CCOCC1)S(C)(=O)=O	-13	0.0	0.7%	0.4	1.5%	10%	24
COc1ccc(S(=O)(=O)Nc2ccc3c(c2)C(=O)N([C@H](C)CO)C[C@H](C)[C@@H](CN(C)C(=O)Nc2c(C)noc2C)O3)cc1	.	-0.8	-1.4%	.	-1.5%	.	36
CCN(C(=O)c1cnc(OC)cc1C(F)(F)F)c1ccc(Cl)cc1Cl	-2	17	-2.0%	-2.1	5.9%	6%	-3
Cc1ccc(SCC(=O)NCCc2ccc(F)cc2)cc1	-13	-0.4	0.8%	-1.7	0.6%	14%	-21
O=CN1CCN(C2CC(=O)N(c3ccc(Br)cc3)C2=O)CC1 (stereo not given)	9	-1.0	35µM*	5.0	-1.6%	0%	2
COc1ccc(C(NC(=O)C2CCN(CCOc3ccc(Cl)cc3Cl)CC2)c2ccccn2)cc1 (stereo not given)	.	0.6	-1.5%	.	0.1%	.	.
COc1ccccc1OCC(=O)N/N=C1/SCC(=O)N1Cc1ccccc1	-15	-1.2	0.1%	0.7	-2.3%	6%	-10
Cc1ccc(S(=O)(=O)Nc2ccc(C(=O)NCCCn3ccnc3)cc2)cc1[N+](=O)[O-]	6	2.8	1.2%	.	0.9%	.	7
COC(=O)c1ccccc1Sc1c(/C=N/OC(=O)c2ccccc2)c(C(F)(F)F)nn1C	-2	-0.4	-2.2%	-0.3	0.3%	13%	13
O=C(O)Cc1ccc2[nH]c3ccc(CC(=O)O)cc3c2c1	19	-0.6	-19%	2.2	-0.2%	-4%	20
C=CCNc1nc(N)c([N+](=O)[O-])c(NCCO)n1	1	-0.4	-1.2%	-1.4	-2.2%	24%	22
CCc1cccc(NC(=O)COC(=O)c2cc(=O)c3ccccc3o2)c1	-2	0.4	-0.3%	.	7.1%	.	10
O=C(O)C(Cc1ccccc1)N1C(=O)CCC1=O (stereo not given)	5	-1.1	0.3%	-0.3	-1.4%	23%	9
Cc1ccc(Nc2nnc(-c3ccc(C)c(S(=O)(=O)NCc4nc5ccccc5[nH]4)c3)c3ccccc23)cc1	.	0.1	-20%	.	0.8%	.	-24
C#CCN(C)Cc1ccccc1	-7	0.2	2.4%	0.1	0.0%	-19%&-4%	-12
CCC(C)NC(=O)c1cn(-c2cccc(OC)c2)c(=O)c2ccccc12 (stereo not given)	-1	1.2	-9.9%	0.1	0.8%	18%	-10
O=C(CN1CCN(Cc2ccccc2Cl)CC1)N/N=C/C=C/c1ccccc1[N+](=O)[O-]	-5	0.1	-0.7%	1.8	-1.9%	8%	27
Cc1cc(C)c(NS(=O)(=O)c2ccccc2)c(C)n1	.	-0.4	-2.0%	.	0.0%	.	-2
Cc1ccccc1C(=O)N1CCCN(C(=O)c2ccccc2C)CC1	-7	-0.4	0.6%	5.5	5.7%	18%	0
CCOC(=O)Cc1csc(NC(=O)COc2ccc3ccccc3c2)n1	6	-0.6	-2.3%	-0.1	-0.2%	4%	7
COc1ccc(NC(=O)CCCn2c(=O)c3sccc3n(Cc3ccccc3C)c2=O)cc1	3	0.4	0.6%	5.6	-1.0%	-21%	7
CCOc1cccc(C2/C(=C(\O)c3ccc4c(c3)OCCO4)C(=O)C(=O)N2Cc2ccncc2)c1 (stereo not given)	6	-0.7	0.5%	-0.6	1.2%	13%	-1
C/C(=N/NC(=O)c1cnccn1)c1cccs1	-8	-0.1	-4.0%	5.1	1.8%	-7%	-25
Cc1ccc(CNC(=O)c2sc3nc4n(c(=O)c3c2C)CCCC4)cc1	.	-0.8	-7.7%	.	0.8%	.	-23
CCc1ccc(C(C(=O)NC2CCCC2)N(Cc2cccnc2)C(=O)c2csnn2)cc1 (stereo not given)	2	-0.4	.	-0.6	-0.2%	17%	7
C(=N\Nc1ccccc1)/c1nc2ccccc2s1	-10	-0.8	2.5%	5.2	12%	12%	-5
COc1ccc(NC(=O)CSc2nnc(C)n2C2CC2)cc1S(=O)(=O)N1CCOCC1	-6	-0.1	-0.9%	.	-1.0%	.	9
CN(C(=O)CSc1n[nH]c(N)n1)C1CCCCC1	.	1.5	-1.1%	.	3.1%	.	5
COc1ccccc1CNC(=O)CN1N=C(c2ccccc2)CCC1=O	.	0.9	2.2%	.	1.0%	.	2
CCc1cc(-c2[nH]ncc2-c2ccc(OC)cc2)c(O)cc1O	13	-1.4	-0.9%	-0.6	-2.5%	16%	-9
COc1ccc([C@H]2/C=C\CN(C(=O)C3CC3)[C@@H](C)C(=O)N2Cc2ccc(F)cc2)cc1	.	0.6	0.7%	.	1.0%	.	32
CCN(CC)C(=O)CSCC(=O)Nc1ccccc1	-6	0.5	-0.7%	-2.0	1.6%[38.3 µM]	1%	6
CCOc1ccc(C(=O)N2CCN(S(=O)(=O)c3cccs3)CC2)c(OCC)c1	19	0.5	0.5%	.	-0.5%	-4%	31
Cc1nn(C)cc1CN(C)C(=O)c1nn2c(c1Cl)NC(c1cccs1)CC2C(F)(F)F (stereo not given)	-2	0.5	0.7%	2.7	.	20%	10
Nc1ccc2oc(-c3cccc(Br)c3)nc2c1	-2	-1.3	-6.5%	4.3	2.1%	-2%	-10
CCc1cc2cc(C(=O)Nc3ccc(C)cc3)sc2s1	?	1.9	0.4%	-7.1	1.2%	?	-13
CCOc1ccc(NC(=O)C2CCN(C(=O)N3CC(C)Oc4ccc(Cl)cc43)CC2)cc1 (stereo not given)	.	3.0	-1.4%	.	-1.1%	.	-18
COc1cc(-c2nc3ccc(Cl)cn3c2Nc2ccc3c(c2)OCO3)ccc1O	.	2.3	3.7%	.	2.6%	.	6
Cc1ccsc1/C=N/NC(=O)CNC(=O)c1ccco1	-6	0.2	-0.3%	-4.2	-0.3%	-9%	-8
Cc1ccc(-c2nc3c4ccccc4ccn3c2Cc2ccccc2C(F)(F)F)cc1	.	-0.1	4.5%	.	2.2%	.	.
COc1ccccc1NC(=O)N1CCCC1C(=O)NCc1ccccc1F (stereo not given)	-23	-0.7	0.3%	-0.2	-0.2%	7%	-4
Cc1ccc(CCN2C(=O)c3ccccc3C2C(=O)NCc2cccnc2)cc1 (stereo not given)	18	1.1	.	-6.4	0.8%	7%	10
Cc1cc(S(=O)(=O)NC[C@H]2O[C@@H](n3cnc4c(N)ncnc43)[C@H](O)[C@@H]2O)c(C)s1	.	-0.1	-1.9%	.	-0.1%	.	-3
O=C(Cc1ccc(-n2c(=S)[nH]c3ccccc3c2=O)cc1)N1CCN(c2ccccc2)CC1	7	-0.3	0.0%	3.1	2.4%[38.3 µM]	11%	-2
CCOc1ccc(-n2c(SCC(=O)Nc3cc(C(=O)O)ccc3Cl)nc3ccccc3c2=O)cc1	-3	1.4	-2.4%	-2.4	0.6%	-12%	70
CSc1nc(Oc2ccc(C)cc2)cc(C(F)(F)F)n1	-21	-0.6	1.3%	-1.4	13%	5%	-12
CS(=O)(=O)c1ccc2nc(NC(=O)c3ccc(=O)[nH]c3)sc2c1	-7	-1.0	.	-0.1	-1.2%	3%	-8
N#Cc1c(N)nc2c(c1-c1ccccc1)CCCC2	2	1.8	?	1.7	4.5%	10%	1
COc1ccccc1Cn1c(C)nc2ccccc21	-1	-0.5	.	3.9	0.6%	4%	-29
CCOc1ccc2oc(-c3ccccc3)c(C(=O)N(C)C)c2c1	-4	1.6	25µM*	-1.8	-4.2%[38.3 µM]	-5%	14
COc1ccccc1CNC(=O)c1cc(C(=O)CC(C)C)c[nH]1	-6	0.4	0.8%	0.0	2.6%	16%	-9
COc1ccc(NC(=O)N(C)C[C@H]2Oc3c(NS(=O)(=O)c4ccc(F)cc4)cccc3C(=O)N([C@H](C)CO)C[C@@H]2C)cc1	.	2.8	1.3%	.	-1.3%	.	19
Nc1nonc1C(=Nc1ccccc1)NO	26	0.5	-0.5%	-0.1	2.6%[38.3 µM]	9%	-29
CCn1c(SCC(=O)c2ccc3c(c2)Cc2ccccc2-3)nnc1-c1ccc(N)cc1	4	-0.5	-7.8%	2.7	6.3%[38.3 µM]	79µM*	-5

# In the list so far, two contain a furan ring, fused or not.
structure	TRPV1 PAM	TRPML1 agonist	ClpP mod	Menin-MLL FL inh	PINK1 modulator	Sfp inh	TRPML1 inh
Cc1ccsc1/C=N/NC(=O)CNC(=O)c1ccco1	-6	0.2	-0.3%	-4.2	-0.3%	-9%	-8
CCOc1ccc2oc(-c3ccccc3)c(C(=O)N(C)C)c2c1	-4	1.6	25µM*	-1.8	-4.2%[38.3 µM]	-5%	14
